HNF4A DNA FP: change in binding of human HNF4 alpha to DNA; hit rate 0.3% among 360,000; AID 1224865; HNF4a-FITC DNA binding, fluorescence polarization, 1 h; P41235; activity change, % at 10 µM; in the data active = activity change above about 30%, passing the limit was not always enough;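 note: controls were the assay level and a saturating level of protein; the project sought stronger binding though the title names inhibitors; some compounds called inactive have numbers as strong as hits; positive values seem to mean higher polarization but the record does not say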
Target sequence (P41235 whole entry, looked up): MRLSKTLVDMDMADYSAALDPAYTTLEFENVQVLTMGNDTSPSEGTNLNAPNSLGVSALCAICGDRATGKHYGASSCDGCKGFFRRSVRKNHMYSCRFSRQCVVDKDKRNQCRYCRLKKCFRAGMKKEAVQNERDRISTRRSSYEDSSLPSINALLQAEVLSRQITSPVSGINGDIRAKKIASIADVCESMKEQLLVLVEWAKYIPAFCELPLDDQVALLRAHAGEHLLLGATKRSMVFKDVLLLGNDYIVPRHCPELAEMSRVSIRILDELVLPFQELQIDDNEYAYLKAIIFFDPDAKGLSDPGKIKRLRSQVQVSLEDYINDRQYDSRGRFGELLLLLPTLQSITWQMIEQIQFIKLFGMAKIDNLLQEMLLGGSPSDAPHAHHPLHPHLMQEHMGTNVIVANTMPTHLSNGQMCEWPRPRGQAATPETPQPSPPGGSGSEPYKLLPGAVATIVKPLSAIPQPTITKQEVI
ALR H2O2 inh: human ALR oxidase inhibition via reduced H2O2 | purified ALR, DTT oxidation, H2O2 HRP-luminol luminescence | inhibition, % (test concentration not listed) | hit rate 3.8% among 290,000;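 active = mean and each replicate at 75% or more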;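 note: stock transfer was 7.5 nL into about 7.5 µL; 0% = neutral wells and 100% = wells with inactivated enzyme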
Ecoli growth: E. coli growth inhibition | OD600 absorbance (concentration not given with the values) | hit rate 0.21% among 330,000 | Escherichia coli growth, OD600, 23 h; stronger effect = lower value | AID 1053175;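 active = OD600 absorbance below the run mean of sample wells minus 3.6 SD, in any replicate, cut at about 0.56 in these data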;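 note: stock transfer was 300 nL into about 60 µL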
UCH37 DUB inh: blocks the human deubiquitinase UCH37. Q9Y5K5. hit rate 0.33% among 330,000. inhibition, % (no concentration beside the values). purified proteasome/UCH37, Ub-AMC cleavage fluorescence. AID 588478;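 active = mean of two replicates above 20%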;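 note: 0% = compound-free wells with enzyme and 100% = wells lacking proteasome; stock transfer was 100 nL into about 20 µL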
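System: Proteasome-associated human UCH37 deubiquitinase; Input: 0.15 nM proteasome in added enzyme buffer; Also added: Ub-AMC substrate from 1 µM stock; Incubation: 30 min compound-proteasome preincubation then 25 min substrate reaction, room temperature; Detection: fluorescence, ex 355 nm, em 460 nm; Read-out: % inhibition of Ub-AMC cleavage fluorescence; Benchmarks: no-proteasome and no-compound wells.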
B2AR ag: activates human beta-2 adrenergic receptor causing internalization; Am2.2-beta2AR cells, FAP receptor internalization, flow cytometry; reference of the scale not given here; response, % (concentration not given with the values); hit rate 0.43% among 340,000;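 active = response above a set limit, near 3 SD of response in nonfluorescent compounds, cut at about 42% in these data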;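 note: stock transfer was 100 nL into about 11 µL; a reference agonist was the positive control; negative values mostly stem from fluorescent compounds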
Target sequence (P07550 whole entry, looked up): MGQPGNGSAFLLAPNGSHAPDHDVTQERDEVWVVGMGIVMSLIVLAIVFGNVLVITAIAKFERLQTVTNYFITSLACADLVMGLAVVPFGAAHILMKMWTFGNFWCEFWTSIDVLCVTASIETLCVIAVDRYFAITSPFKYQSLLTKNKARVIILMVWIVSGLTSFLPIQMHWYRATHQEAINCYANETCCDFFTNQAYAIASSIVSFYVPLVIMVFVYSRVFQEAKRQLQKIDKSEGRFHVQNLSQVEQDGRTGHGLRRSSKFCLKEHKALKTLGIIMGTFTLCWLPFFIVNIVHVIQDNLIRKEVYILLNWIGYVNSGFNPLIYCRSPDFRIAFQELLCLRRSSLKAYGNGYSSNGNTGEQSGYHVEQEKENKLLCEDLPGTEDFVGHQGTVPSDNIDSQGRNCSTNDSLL
Ecoli rRNA inh: selective bacterial rRNA inhibition in E. coli; E. coli WT GFP vs humanized-ribosome RFP mutants, fluorescence, 24 h; stronger effect = lower value; DMSO median 0, no signal -100; GFP signal change (wild-type ribosome), % (concentration not given with the values); hit rate 1.6% among 350,000; AID 720706;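 active = significant combined selectivity score with lowered wild-type GFP, culture density cut under 30%, mutant RFP and density less affected; inactive = any of these conditions unmet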; note: one replicate is shown; some compounds called inactive have numbers as strong as hits
FGF22 binding: binders of recombinant human FGF22 by thermal shift. Q9HCT0. AID 651658. calls only at 9.99 µM. SYPRO orange fluorescence; percent of sucrose octasulfate shift, DMSO zero. hit rate 1.5% among 340,000;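 active = melting point raised past a set limit in the mean and every replicate; three in four hits are not shown here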
Target sequence (Q9HCT0 whole entry, looked up): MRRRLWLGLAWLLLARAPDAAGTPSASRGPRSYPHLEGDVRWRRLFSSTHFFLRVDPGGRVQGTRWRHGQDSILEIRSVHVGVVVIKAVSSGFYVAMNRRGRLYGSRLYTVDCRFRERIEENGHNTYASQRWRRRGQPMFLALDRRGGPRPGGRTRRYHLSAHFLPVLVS
Ecoli rRNA inh OD600: second read-out of Ecoli rRNA inh, no call of its own (marks repeat the call); OD600 change, %; measured here: OD600 growth;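 optical density of the mix in the first replicate; 0 = DMSO median and -100 = no signal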
Ecoli rRNA inh RFP: second read-out of Ecoli rRNA inh, no call of its own (marks repeat the call); RFP signal change, %; measured here: RFP humanized mutant strains;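 first replicate; 0 = DMSO median and -100 = no signal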
Active calls of the source: *; i = inactive; . = not tested or not shown. A portion of the library; count on the stated rates, not on these rows.

SMILES	HNF4A DNA FP	ALR H2O2 inh	Ecoli growth	UCH37 DUB inh	B2AR ag	Ecoli rRNA inh	Ecoli rRNA inh OD600	Ecoli rRNA inh RFP	FGF22 binding
CCOc1cccc(NC(=O)c2cccc(F)c2)c1	-1.8	-3	0.68	2.9	-8	5	8	-1.5	i
CN(CC(=O)Nc1cccc(F)c1)C(=O)c1cccc(S(=O)(=O)N2CCN(c3ccc(F)cc3)CC2)c1	-0.4	.	.	.	6	.	.	.	i
CCCC/C(=N\NC(=O)c1ccc(Br)o1)c1ccccc1	-1.5	25	.	.	-7	.	.	.	.
CCOc1ccc(-n2c(O)c(/C=N/Nc3nc(C)cc(C)n3)c3ccccc3c2=O)cc1	3.0	38	0.7	2.8	0	13	10	1.3	i
O=C(CCc1nc(-c2ccccc2)no1)NCc1ccco1	6.0	35	0.7	-1.9	1	.	.	.	.
CN1C(=O)/C(=C/c2ccc(OCc3ccccc3F)cc2)N(C)C1=S	-0.5	-2	0.75	1.1	14	2	2	-1.0	i
COc1ccc2[nH]c3c(c2c1)CCN1C(=O)C(CC(=O)NCCc2ccccn2)C[C@H](C(=O)N(C(C)C)C(C)C)[C@@]31C (stereo partly drawn)	-0.2	.	0.68	-1.1	-6	-1	3	-0.3	i
Cc1sc2ncn(CC(=O)N3CCN(c4ccccn4)CC3)c(=O)c2c1S(=O)(=O)N1CCCCC1	4.2	.	0.7	-2.1	1	11	3	3.2	i
O=C(Nc1ccc(Cl)cc1)c1csc([C@@H]2C[C@H](O)[C@@H](CO)O2)n1	9.0	.	.	.	.	-2	-11	-7.2	i
CCOC(=O)c1c(C)nc2c(c1-c1cc(OC)c(OC)c(OC)c1)C(=O)c1ccccc1-2	3.1	-2	0.69	-1.7	29	.	.	.	.
CCn1c(C(=O)N2CCC(Cc3ccccc3)CC2)cc2sccc21	4.3	-4	0.71	2.1	4	.	.	.	.
COc1ccc(S(=O)(=O)N2CCCC2C(=O)Nn2cnnc2)cc1 (stereo not drawn)	0.4	-15	0.73	-0.7	-2	.	.	.	.
O=C(CCNS(=O)(=O)c1c(Cl)cccc1Cl)OCC(=O)c1ccccc1F	1.4	-12	0.69	1.7	3	.	.	.	.
CC(=O)Nc1ccc2c(c1)CCC2=O	0.4	-4	0.68	1.0	-10	.	.	.	.
COc1ccccc1CNC(=O)[C@H](NC(=O)C1CCN(C(=O)[C@@H](N)CCSC)CC1)C(C)C	0.7	-2	0.68	-1.5	7	6	5	-2.5	i
CCOc1ccc(NCc2cccn2-c2nnc(N3CCC(C(=O)NCCCN4CC(C)CC(C)C4)CC3)s2)cc1 (stereo not drawn)	-0.6	100*	.	.	23	-18	-13	12	i
CCOC(=O)c1ccc(N=Cc2c(O)c3ccccc3oc2=O)cc1	-3.9	0	0.64	-23	0	-12	-23	2.0	i
CCc1nc2ccccc2c(C(=O)OC2CCCCC2=O)c1C (stereo not drawn)	0.2	5	0.69	-1.9	-7	-34*	-20*	3.9*	i
O=C(CC(n1cncn1)C(Cl)(Cl)Cl)c1ccc([N+](=O)[O-])cc1 (stereo not drawn)	-0.3	9	0.67	0.7	9	-8	11	0.3	i
Cc1cccc(N(CC(=O)NC2CCCC2)C(=O)CCC(=O)Nc2nc(C)cs2)c1	0.3	1	0.68	1.4	-7	-2	4	2.6	i
CCc1ccc(/C=C(\C)C(=O)c2c(C)cc(C)[nH]c2=O)cc1	-0.4	10	0.69	6.8	-7	.	.	.	.
CCOc1ccc(Oc2c(/C=N/NC(=O)C3CC3)c(C)nn2-c2ccccc2)cc1	-1.3	-9	.	.	-16	.	.	.	i
Cc1ccc(C(=O)NCCc2nnc(SCC(=O)Nc3nc(-c4ccccc4)cs3)n2C)cc1	-1.3	4	0.68	4.5	-4	.	.	.	.
O=C(CN1C(=O)NC2(CCCCCC2)C1=O)N1CCN(S(=O)(=O)c2ccccc2)CC1	-3.1	-1	0.66	2.5	-7	7	7	-0.8	i
COc1ccc(NC(=O)CCNC(=O)C2CCN(S(=O)(=O)c3ccc(OC)cc3)CC2)cc1	2.1	-4	0.7	2.8	-4	4	8	-2.7	i
CCOC(=O)N1CCN(c2nc3ccccc3nc2C(C#N)C(=O)NCCc2ccccc2)CC1 (stereo not drawn)	3.1	-7	0.71	0.6	13	14	4	-0.8	.
NC(=O)C1CCN(C(=O)Cc2ccsc2)CC1	0.3	-5	0.66	-0.7	0	7	13	0.4	i
N#Cc1cc2c(nc1SCC(=O)N1CCCCC1)CCCCC2	3.0	-12	0.74	0.8	-11	.	.	.	.
O=S(=O)(NCc1ccc(Cl)cc1)c1cnc[nH]1	-3.5	-7	0.73	1.0	5	.	.	.	.
NC(Cc1c[nH]c2ccccc12)C(=O)NCc1ccccc1 (stereo not drawn)	0.0	-2	0.69	0.0	1	6	4	1.2	i
O=C(C1CC(=O)N(C2CCCCC2)C1)N1CCN(c2cccc(C(F)(F)F)c2)CC1 (stereo not drawn)	-1.1	0	0.69	-37	5	-13	-13	-0.5	i
C[C@H](NC(=O)C1CC(=O)N(c2ccc3c(c2)OCO3)C1)C(=O)NC1CCCCC1 (stereo partly drawn)	0.9	-2	0.63	-0.4	-3	12	15	0.9	i
Cc1cc(C)c(C#N)c(SCc2nnc(-c3ccccc3)o2)n1	1.1	-9	0.65	-0.1	22	10	0	-4.5	i
O=C(Nc1cc(Cl)ccc1F)C1=COCCO1	-4.7	43	0.7	3.2	-5	5	11	-0.2	i
Cc1oc(-c2ccc(-c3ccccc3)cc2)nc1CN1CCN(CC(=O)N(C)C)CC1	-0.2	33	0.66	-2.1	-5	12	12	1.0	i
CN1CCN(C(=O)c2cc(=O)c3cc(Cl)cc(Cl)c3o2)CC1	0.7	-10	0.68	2.4	-2	7	7	7.5	i
CC12CCC(=O)N1C(C(=O)NCCN1C(=O)S/C(=C\c3ccc(F)cc3)C1=O)CS2 (stereo not drawn)	0.5	-1	0.67	4.1	-6	-3	1	3.7	i
C[C@@H]1CCC[C@@]2(O[C@H](CCO)C[C@H](O)[C@H]2O)O1	-1.8	-7	.	-1.6	2	-1	3	0.2	i
CC(=O)c1ccc(NC(=O)COC(=O)CC2CC3CCC2C3)cc1 (stereo not drawn)	2.2	1	0.72	2.4	-2	-3	0	3.4	i
O=C(c1cc(C2CCCCN2S(=O)(=O)c2ccccc2)on1)N1CCOCC1 (stereo not drawn)	-1.7	.	.	.	.	16	16	1.0	i
CC1(C)C2([N+](=O)[O-])CN(CCO)CC1([N+](=O)[O-])CN(CCO)C2	-0.1	4	0.69	1.7	9	.	.	.	.
CC(C)C(NC(=O)OCc1ccccc1)C(=O)NCc1ccc(C(=O)O)cc1 (stereo not drawn)	4.0	-2	0.68	3.8	-6	.	.	.	.
CCN(C(=O)CSc1nc2ccccc2n1CCc1ccccc1)C1CCS(=O)(=O)C1 (stereo not drawn)	1.3	0	0.72	3.2	-7	.	.	.	.
CC(Oc1ccc(-c2nnco2)cc1)C(=O)N1CCOCC1 (stereo not drawn)	-0.1	0	0.64	3.4	13	6	6	1.2	.
Cc1nnc(N2CCN(Cc3ccccc3)CC2)[nH]c1=O	0.3	99*	0.8	3.4	5	.	.	.	.
CC1Cn2c(nnc2-c2cc3ccccc3cc2O)S1 (stereo not drawn)	-3.6	-11	0.66	-40	-12	3	7	0.3	i
COc1ccc(-n2cnc3cc(NCc4ccco4)ccc32)cc1	1.5	48	0.7	-4.3	-3	-18	-8	30	i
CCOc1ccc(C(=O)Nc2nnc(C)s2)cc1OCC	2.2	-4	0.67	5.7	-11	.	.	.	.
Cc1csc(NC(=O)Cc2c[nH]c3ccccc23)n1	4.6	13	0.69	-1.8	5	.	.	.	.
COc1cccc(C(=O)/C=C/Nc2ccc(S(=O)(=O)Nc3cccc(C(C)=O)c3)cc2)c1	3.5	0	0.78	-8.0	13	.	.	.	.
CSc1ccc(CN2CCC(C)(Oc3cccc(Cl)c3)C2)cc1 (stereo not drawn)	3.3	.	.	.	.	-6	-30	-2.2	i
COc1ccc(OC)c(N(CC(=O)Nc2cccnc2)S(=O)(=O)c2ccccc2)c1	-3.6	-22	0.68	4.6	-16	-18	-16	-12	.
O=c1[nH]nc(-c2ccc([N+](=O)[O-])o2)c(=O)[nH]1	-0.7	.	0.52*	9.2	-2	-52	-77	-20	i
NC(=O)c1ccccc1NC(=O)c1ccccc1F	-0.2	0	0.65	-0.8	-3	.	.	.	.
O=C1CCC(C(=O)OCC(=O)c2c[nH]c3ccccc23)=NN1	-3.5	-16	0.7	1.7	.	.	.	.	.
COC(=O)C1C(=O)/C(=C/N(C)C)C(=O)CC1(C)C (stereo not drawn)	-4.9	-2	0.67	-0.7	15	18	13	4.1	i
CCCc1cc2c(cc1NC(=O)c1ccccc1C)OCO2	-2.0	-7	0.69	4.3	-1	.	.	.	.
CCn1c(=O)cc(SCC(=O)N2CCN(c3ccccn3)CC2)c2ccccc21	-1.0	.	0.64	6.2	8	.	.	.	.
O=S(=O)(NCC(c1ccccc1)N1CCC(O)CC1)c1ccc(Cl)cc1 (stereo not drawn)	6.1	-2	0.69	0.4	1	3	10	1.6	i
Cc1ccc(-c2ccc(=O)n(CCC(=O)N3CCN(c4ccccc4)CC3)n2)cc1	0.6	52	0.69	2.3	-4	-10	-14	2.7	i

Sorted by the number under UCH37 DUB inh (high to low): 3 of the compounds above
| SMILES | HNF4A DNA FP | ALR H2O2 inh | UCH37 DUB inh | B2AR ag | Ecoli rRNA inh | Ecoli rRNA inh OD600 | Ecoli rRNA inh RFP | FGF22 binding |
| --- | --- | --- | --- | --- | --- | --- | --- | --- |
| CCCc1cc2c(cc1NC(=O)c1ccccc1C)OCO2 | -2.0 | -7 | 4.3 | -1 | . | . | . | . |
| O=C1CCC(C(=O)OCC(=O)c2c[nH]c3ccccc23)=NN1 | -3.5 | -16 | 1.7 | . | . | . | . | . |
| NC(=O)c1ccccc1NC(=O)c1ccccc1F | -0.2 | 0 | -0.8 | -3 | . | . | . | . |

Later entries.
SMILES	HNF4A DNA FP	ALR H2O2 inh	Ecoli growth	UCH37 DUB inh	B2AR ag	Ecoli rRNA inh	Ecoli rRNA inh OD600	Ecoli rRNA inh RFP	FGF22 binding
Cc1cc2cc(C(c3nnnn3C3CCCC3)N(Cc3cccnc3)Cc3ccco3)c(=O)[nH]c2cc1C (stereo not drawn)	0.5	4	0.76	-2.4	3	.	.	.	.
CCCC(C)C(=O)Nc1ccc(NC(C)=O)cc1 (stereo not drawn)	1.1	-15	0.74	-1.1	-4	.	.	.	.
Cc1cccc(-c2cc(C(=O)N/N=C/c3cccnc3)c3ccccc3n2)c1	2.5	-10	.	.	-4	-7	-4	2.3	i
CSc1ccc(-c2cccc3nncn23)cc1	0.2	.	.	.	.	4	-2	-0.7	i

Record cards, from the list above.
Cc1ccc(-c2ccc(=O)n(CCC(=O)N3CCN(c4ccccc4)CC3)n2)cc1 is listed as HNF4A DNA FP = 0.6; ALR H2O2 inh = 52; Ecoli growth = 0.69; UCH37 DUB inh = 2.3; B2AR ag = -4; Ecoli rRNA inh = -10; Ecoli rRNA inh OD600 = -14; Ecoli rRNA inh RFP = 2.7; FGF22 binding = i
CCOc1cccc(NC(=O)c2cccc(F)c2)c1 is listed as HNF4A DNA FP = -1.8; ALR H2O2 inh = -3; Ecoli growth = 0.68; UCH37 DUB inh = 2.9; B2AR ag = -8; Ecoli rRNA inh = 5; Ecoli rRNA inh OD600 = 8; Ecoli rRNA inh RFP = -1.5; FGF22 binding = i
CCN(C(=O)CSc1nc2ccccc2n1CCc1ccccc1)C1CCS(=O)(=O)C1 (stereo not drawn) is listed as HNF4A DNA FP = 1.3; ALR H2O2 inh = 0; Ecoli growth = 0.72; UCH37 DUB inh = 3.2; B2AR ag = -7; Ecoli rRNA inh = .; Ecoli rRNA inh OD600 = .; Ecoli rRNA inh RFP = .; FGF22 binding = .

Screening results: PubChem BioAssay, several laboratories
